From PubChem
Mtb RmlCD inh = inhibitors of Mycobacterium tuberculosis RmlC and RmlD coupled enzymes; P9WH09+P9WH11; RmlC+RmlD coupled enzyme assay, percent inhibition; primary screen in compound mixtures; inhibition, % at 3.6 µM; actives 0.03% (n = 160,000); AID 1533; in the data active = inhibition mostly above about 34%, no sharp cut-off; only retested compounds are shown here; also: some results filed as inactive read as strong as hits
Target sequence (P9WH09 whole entry, looked up): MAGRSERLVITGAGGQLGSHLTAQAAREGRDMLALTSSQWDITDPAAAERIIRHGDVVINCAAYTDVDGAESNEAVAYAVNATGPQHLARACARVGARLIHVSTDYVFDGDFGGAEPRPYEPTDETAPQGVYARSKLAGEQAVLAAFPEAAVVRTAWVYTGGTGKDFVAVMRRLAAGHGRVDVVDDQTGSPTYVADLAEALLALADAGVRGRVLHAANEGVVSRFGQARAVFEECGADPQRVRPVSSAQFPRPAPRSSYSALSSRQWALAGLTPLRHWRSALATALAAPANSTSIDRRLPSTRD
Target sequence (P9WH11 whole entry, looked up): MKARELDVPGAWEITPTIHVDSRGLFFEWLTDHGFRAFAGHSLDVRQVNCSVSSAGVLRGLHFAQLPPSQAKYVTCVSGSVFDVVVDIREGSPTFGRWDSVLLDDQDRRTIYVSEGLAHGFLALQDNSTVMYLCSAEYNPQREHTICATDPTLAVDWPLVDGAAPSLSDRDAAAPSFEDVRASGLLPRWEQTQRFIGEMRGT
Mtb RmlCD inh retest = also measured in Mtb RmlCD inh; calls as there; inhibition, %; measured here: mean retest inhibition;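 single compounds in two wells; values far above 100% likely come from compound fluorescence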
Starred values were filed as active, the others as inactive.

Values run as follows: Mtb RmlCD inh	Mtb RmlCD inh retest
1: O=C(O)C1CCN(S(=O)(=O)c2ccc3c(c2)OCCCO3)CC1
→ 33.5	-6.9
2: CC(=O)Nc1ccc(C(=O)OCC(=O)N(C)C2CCCCC2)cc1
→ 82.4	-16.4
3: COc1ccc(Cc2nc3ccccc3n2C)cc1
→ 37.5	8.9
4: CCOC(=O)/C(=N/Nc1ccc(C)cc1)S(=O)(=O)c1ccc(Cl)cc1
→ 49.6	-15.8
5: N/C(=N\NC(=O)c1cccs1)c1cc2ccccc2oc1=O
→ 39.2	-5.8
6: CCOC(=O)c1cnn(-c2ccc([N+](=O)[O-])cc2)c1N
→ 40.8	-9.1
7: CSc1sc(C(=O)NCC2CC2)c(-c2cccs2)c1C#N
→ 31.0	-0.2
8: CC(C)(C)c1ccc(-c2noc(CCC(=O)N3CCOCC3)n2)cc1
→ 33.5	2.6
9: O=C(Nc1ccc2c(c1)OCCO2)c1ccncc1
→ 35.0	2.7
10: COc1cc(/C=N/NC(=O)c2cccc([N+](=O)[O-])c2)ccc1OC(=O)c1ccco1
→ 40.9	8.1

Quoted from above: nos. 6 to 10
Values run as follows: Mtb RmlCD inh	Mtb RmlCD inh retest
6: CCOC(=O)c1cnn(-c2ccc([N+](=O)[O-])cc2)c1N
→ 40.8	-9.1
7: CSc1sc(C(=O)NCC2CC2)c(-c2cccs2)c1C#N
→ 31.0	-0.2
8: CC(C)(C)c1ccc(-c2noc(CCC(=O)N3CCOCC3)n2)cc1
→ 33.5	2.6
9: O=C(Nc1ccc2c(c1)OCCO2)c1ccncc1
→ 35.0	2.7
10: COc1cc(/C=N/NC(=O)c2cccc([N+](=O)[O-])c2)ccc1OC(=O)c1ccco1
→ 40.9	8.1

Part of the list above in order of molecular weight, ascending.
Values run as follows: Mtb RmlCD inh	Mtb RmlCD inh retest
9: O=C(Nc1ccc2c(c1)OCCO2)c1ccncc1
→ 35.0	2.7
6: CCOC(=O)c1cnn(-c2ccc([N+](=O)[O-])cc2)c1N
→ 40.8	-9.1
5: N/C(=N\NC(=O)c1cccs1)c1cc2ccccc2oc1=O
→ 39.2	-5.8
8: CC(C)(C)c1ccc(-c2noc(CCC(=O)N3CCOCC3)n2)cc1
→ 33.5	2.6
10: COc1cc(/C=N/NC(=O)c2cccc([N+](=O)[O-])c2)ccc1OC(=O)c1ccco1
→ 40.9	8.1

Next part:
Values run as follows: Mtb RmlCD inh	Mtb RmlCD inh retest
11: CCOC(=O)Nc1csnn1
→ 82.8	-13.7
12: O=C(O)C1OC2OC3(CCCCC3)OC2C2OC3(CCCCC3)OC12 (stereo not drawn)
→ 32.0	-6.2
13: Cc1cc(C)cc(OCC(=O)NC2CCCc3ccccc32)c1 (stereo not drawn)
→ 42.6	-5.6
14: COC(=O)[C@H](CCSC)NC(=O)Nc1cccc(C)c1C
→ 58.4	7.5
15: Cc1cccc(OCC(=O)NCC(=O)N/N=C/c2cccnc2)c1
→ 35.8	15.4
16: O=C(/C=C/c1ccccc1[N+](=O)[O-])N1CCN(C(=O)c2ccco2)CC1
→ 51.8	-12.3
17: COC(CNC(=O)c1coc2nc3ccccc3nc12)OC
→ 73.9*	55.6*
18: O=C(/C=C/C(=O)N1CCc2ccccc2C1)N1CCc2ccccc2C1
→ 36.5	-12.7
19: O=C(O)CCCC(=O)N1CCc2cc(S(=O)(=O)NCc3ccccc3)ccc21
→ 103.3	-4.7
20: COc1ccc(C(=O)C2CCCN(Cc3cnc(N4CCOCC4)s3)C2)cc1F (stereo not drawn)
→ 40.0	3.2
21: Cc1cc(C)n2c(C)nnc2c1
→ 107.5	-14.3
22: C=CCn1cc(C(=O)NCc2ccc(Cl)cc2)c(=O)c2cc(S(=O)(=O)N(CC)CC)ccc21
→ 53.6	3.0
23: COc1cc(/C=C(\C#N)c2nc3ccccc3o2)ccc1O
→ 30.9	-69.3
24: COC(=O)c1cnc(NNC(=O)c2ccc([N+](=O)[O-])cc2)nc1C(F)(F)F
→ 40.8	-12.8
25: O=C(Cn1cnc2cc([N+](=O)[O-])ccc2c1=O)NC1CCS(=O)(=O)C1 (stereo not drawn)
→ 31.6	-4.5
26: O=C(Nc1ccc2c(c1)OCO2)c1ccc(N2CCCC2)c([N+](=O)[O-])c1
→ 91.0	-0.3
27: O=C(CCl)c1ccc2c(c1)CCN2C(=O)C1CCCCC1
→ 36.3	-4.6

These rows are one share of the data. The share of hits here may be higher or lower than overall.
